High-throughput results: PubChem, several laboratories
Mtb hypoxia rep – PubChem AID 1159583; M. tuberculosis hypoxia-regulated fluorescent reporter, fluorescence; fluorescence inhibition, % (no concentration beside the values); 300,000 compounds, 0.1% hits;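 active = 35 to 45% if threefold the growth effect, above 45% if 1.5-fold the growth effect; inactive = the rest, general growth blockers included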;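 note: wells of about 50 µL received 100 nL stock; 0% = vehicle wells and 100% = reference inhibitor wells; whole bacteria with a GFP reporter of the hypoxia response; strong numbers were not always called active; many hits fall short of the cut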
ugtP null kill – growth inhibition of ugtP-null S. aureus, primary screen, RN4220 ugtP deletion, OD600; 16 h; some inactives read as strong as hits; AID 1259309, 2017; growth inhibition, % (test concentration not listed); 330,000 compounds, 0.54% hits;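 active = z-score under -3 and OD600 up to 0.15 on both plates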;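 note: plate controls were untreated wells for no effect and antibiotic for full effect; wells of about 80 µL received 100 nL stock; the first replicate is given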
BJeLR viability – MLPCN primary cell-based screen for lethality selective to Ras in HRASV12 cells; BJeLR (HRASV12) viability, CellTiter-Glo ATP luminescence, 48 h; reference of the scale not given here; AID 1554, 2009; inhibition, % (concentration not given with the values); 300,000 compounds, 0.17% hits;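 active = replicate mean above 50%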;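 note: 50 nL library stock added to about 25 µL; numbers are from one replicate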
PrP UTR inh – inhibition of PrP 5' UTR reporter expression | 340,000 compounds, 0.35% hits | cell-based PrP 5' UTR mRNA reporter, plate reader | inhibition, % (concentration not given with the values);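 active = every replicate at 50% or more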;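 note: 0 = median of the neutral control wells; tested in H4 reporter cells; numbers are from one replicate; inactives centre near -14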
Autofluor counter – compound fluorescence in toxin protease inhibitor counterscreen; compound autofluorescence counterscreen, microsphere flow cytometry; stronger effect = higher value; fluorescence intensity (no concentration beside the values); 360,000 compounds, 3.1% hits; AID 624483;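 active = at least 3 SD above the mean of all compounds, about 16000 in these data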;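 note: 100 nL of 1 mM stock went into each well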
Sa RN4220 lethal – growth inhibition of S. aureus RN4220, primary screen, OD600 | 16 h | 330,000 compounds, 0.33% hits | inhibition, % (concentration not given with the values);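 active = z-score of -3 or lower and OD600 up to 0.18 on both plates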;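 note: plate controls were untreated cells for no effect and reference antibiotic for full effect; stock transfer was 100 nL into about 80 µL; one replicate is shown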
Mtb hypoxia rep growth – further read-out of Mtb hypoxia rep, marked with its call; growth inhibition, %; measured here: M. tuberculosis growth (absorbance);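 0% = vehicle and 100% = reference antibiotic; read after six days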
The depositor's hits bear a star; · = not tested or not shown.

nr	SMILES	Mtb hypoxia rep	Mtb hypoxia rep growth	ugtP null kill	BJeLR viability	PrP UTR inh	Autofluor counter	Sa RN4220 lethal
1	CCC(OC(=O)c1nsc(Cl)c1Cl)C(=O)NCc1ccco1 (configuration not stated)	2	-1	-2	2	-12	3758	0.2
2	CCC(=O)NC(O)C(=O)c1ccc(C)cc1 (configuration not stated)	0	-1	2	2	-4	3964	-5.4
3	Cc1ccc(C2=CSC3=NCCN23)c(C)c1	5	7	-5	-1	-16	2655	-18
4	CCCn1c(NCc2c[nH]c3ccccc23)nc2ccccc21	8	11	-7	-4	-35	3821	-1.5
5	Cc1ccc(C(=O)NC(C)c2ccncc2)o1 (configuration not stated)	4	3	5	10	0	6088	4.2
6	O=C(CNC(=O)c1ccccc1)OCc1nnc(-c2ccc(Cl)cc2)o1	21	16	3	-4	-10	3576	7.2
7	COc1ccc(CCN2CC(C(=O)NCc3nc4ccccc4n3C)CCC2=O)cc1 (configuration not stated)	4	-1	11	-3	-8	4664	4.4
8	O=C1CC(c2ccccc2)CC(O)=C1C=NCC1CCCO1 (configuration not stated)	3	5	4	-2	-3	3527	2.2
9	CSc1ccc(CNCc2ccco2)cc1	6	-1	4	16	-23	4072	2.1
10	O=C(O)c1cccc(S(=O)(=O)NCC2CCCO2)c1 (configuration not stated)	1	-4	-4	-10	-10	3721	-0.7
11	COc1ccc(C(=O)COC(=O)c2c(C)noc2C)cc1Cl	4	12	4	·	-10	3841	1.6
12	COc1ccc(CSCC(=O)NN=Cc2ccc(OCC(=O)N3CCCCC3)cc2)cc1	0	3	1	·	·	·	2.8
13	C=CCN1C(=O)C2(C(C(=O)OCC)=C(N)Oc3ccccc32)C2=C1CCCC2=O (configuration not stated)	0	5	-13	3	-28	9223	7.3
14	COc1cccc(CNC(=O)C2CCN(S(=O)(=O)N3CCCCC3)CC2)c1	8	13	3	2	-28	21716*	-0.5
15	CCc1cccc(C)c1NC(=O)C1CCN(C(=O)c2ccc([N+](=O)[O-])cc2)CC1	10	2	6	-4	-16	2241	1.5
16	Cc1cc(NC(=O)COC(=O)C2CCN(S(=O)(=O)c3c(Cl)cccc3Cl)CC2)no1	3	5	0	0	-12	3454	-4.8
17	Cc1cccn2c(=O)c3cc(C(=O)N4CCOCC4)n(C)c3nc12	6	-1	2	-14	-13	5689	0.9
18	O=S(=O)(Nc1ncccn1)c1ccc(NS(=O)(=O)c2cc(Cl)ccc2Cl)cc1	6	1	-1	-2	-26	2430	8.5
19	O=C(NCC1CCCO1)c1ccc2c3n(nc2c1)-c1ccccc1CO3 (configuration not stated)	6	6	5	1	-41	4024	1.8
20	CC(C)CC1(C)NC(=O)N(CCN2C(=O)c3ccccc3C2=O)C1=O (configuration not stated)	11	8	3	0	·	8207	6.9
21	COCCCNC(=O)c1ccc(CS(=O)(=O)c2ccc(Br)cc2)o1	·	·	5	-3	-7	5828	1.5
22	O=C1NC(=O)/C(=C/c2ccc(OS(=O)(=O)c3ccc(F)cc3F)cc2)N1	-1	7	1	5	-2	3440	4.6
23	CC(C)Oc1ccc(C(=O)Nc2ccc(S(=O)(=O)N3CCN(C)CC3)cc2)cc1	-10	14	6	-6	-11	3271	1.0
24	CCc1ccccc1NC(=O)CC1SCCNC1=O (configuration not stated)	6	4	10	4	-27	4647	3.5
25	Cc1ccc(N2C(=O)NC(=O)C(CCc3ccccn3)(Cc3cccc(Cl)c3Cl)C2=O)cc1 (configuration not stated)	4	3	12	0	-40	7309	6.0
26	CCCn1nc2cc(C(=O)NCc3ccc(C)cc3)ccc2c1OCC	10	12	-9	2	-17	4011	2.4
27	O=C(/C=C/c1ccc([N+](=O)[O-])cc1)Nc1cccc(C(=O)Nc2ccccc2C(=O)O)c1	2	-3	6	-1	11	3665	9.4
28	CCCOC(=O)c1ccc2c(c1)C(=O)N(c1ccccc1)C2=O	6	5	22	-3	-44	10266	6.9
29	Cc1nnc(NC(=O)c2cccc(S(=O)(=O)N3CCc4ccccc43)c2)s1	2	7	-3	2	-11	2923	8.7
30	CN(NC(N)=O)c1ncc(C(F)(F)F)cc1Cl	1	4	9	6	-14	·	6.7
31	CCn1c(SCc2ccc(C(=O)Nc3cc(C)cc(C)c3)cc2)nnc1-c1ccncc1	9	5	0	9	-7	3904	-1.5
32	COc1ccccc1-c1oc2ccccc2c1C#CCO	-3	7	0	·	-22	3953	7.5
33	Cc1cc(Nc2ccc(F)c(Cl)c2)n2nc(C)nc2n1	·	·	2	-8	-6	5812	-0.2
34	CCCc1cc(N2CCCC(C(=O)NCC)C2)n2ncnc2n1 (configuration not stated)	2	-3	3	-6	-7	20607*	-0.3
35	Cn1cnc(C(=O)NC2CCN(C(=O)OC(C)(C)C)CC2)c1C(=O)NC1CCN(C(=O)OC(C)(C)C)CC1	4	2	10	·	-27	2905	8.9
36	CC[C@H](C)/C=C(C)/C=C/C1=CC2=C(Cl)C(=O)[C@@](C)(OC(C)=O)C(=O)C2=CO1	·	·	·	7	-13	5823	·
37	O=C(CSc1nnc(CNC(=O)c2ccccc2F)o1)Nc1ccc2c(c1)OCCO2	11	-3	3	12	-12	·	-5.1
38	CN(C(=O)COc1cccc(C#N)c1)C1CCS(=O)(=O)C1 (configuration not stated)	6	-2	7	·	-10	6453	5.5
39	COc1ccc(C(=O)NC(=S)N2CCCCC2c2cccnc2)cc1OC (configuration not stated)	·	·	1	-1	-20	4085	1.4
40	Cc1nccn1-c1c([N+](=O)[O-])c(=O)n(C)c2ccccc12	5	1	0	6	-17	6176	4.7
41	CC(=O)Nc1ccc(S(=O)(=O)Nc2ccc3c(c2)CCC3)cc1	5	3	-2	1	-6	4077	-0.1
42	CCCCNC(C)Cc1ccccc1 (configuration not stated)	·	·	8	·	-22	5855	1.4
43	Cc1cccc(-n2c(SCC(=O)N3CCCC3)nnc2-c2ccccn2)c1C	3	3	9	-3	-2	4709	5.9
44	Cc1nc(N)nc(N/N=C/c2ccccc2)n1	·	·	·	-6	-10	3861	·
45	COC(=O)c1ccc(Cn2c(CN3CCOCC3)nc3ccccc3c2=O)o1	9	4	1	1	-7	3734	3.3
46	COc1ccccc1-n1cc(-c2ccc([N+](=O)[O-])cc2)[nH]c1=S	0	9	4	-6	-26	4032	2.5
47	Nc1nc(-c2ccc3c(c2)CCO3)cs1	9	-3	-7	-3	-56	4036	1.7
48	Cc1nc2c(C)cccc2cc1C(=O)NN=Cc1ccc(C(=O)O)cc1	·	·	11	·	·	·	9.7
49	CCn1cc(C(=O)N2CC(C)CC(C)C2)c(=O)c2cc(S(=O)(=O)N(C)C)ccc21 (configuration not stated)	·	·	-13	-2	-19	4547	-0.1
50	CCOC(=O)c1sc(NC(=O)CSc2nc(C)cc(C(F)(F)F)n2)c(C#N)c1C	-3	8	-8	1	-29	20685*	-0.1

Compound profiles, from the list above.
COc1ccccc1-c1oc2ccccc2c1C#CCO is listed with Mtb hypoxia rep: -3; Mtb hypoxia rep growth: 7; ugtP null kill: 0; BJeLR viability: ·; PrP UTR inh: -22; Autofluor counter: 3953; Sa RN4220 lethal: 7.5
CC(=O)Nc1ccc(S(=O)(=O)Nc2ccc3c(c2)CCC3)cc1 is listed with Mtb hypoxia rep: 5; Mtb hypoxia rep growth: 3; ugtP null kill: -2; BJeLR viability: 1; PrP UTR inh: -6; Autofluor counter: 4077; Sa RN4220 lethal: -0.1

Pulled by compound from the list above (3):
nr	SMILES	Mtb hypoxia rep	Mtb hypoxia rep growth	ugtP null kill	BJeLR viability	PrP UTR inh	Autofluor counter	Sa RN4220 lethal
10	O=C(O)c1cccc(S(=O)(=O)NCC2CCCO2)c1 (configuration not stated)	1	-4	-4	-10	-10	3721	-0.7
40	Cc1nccn1-c1c([N+](=O)[O-])c(=O)n(C)c2ccccc12	5	1	0	6	-17	6176	4.7
2	CCC(=O)NC(O)C(=O)c1ccc(C)cc1 (configuration not stated)	0	-1	2	2	-4	3964	-5.4

The listing picks up with the 5 entries that preceded the break.
nr	SMILES	Mtb hypoxia rep	Mtb hypoxia rep growth	ugtP null kill	BJeLR viability	PrP UTR inh	Autofluor counter	Sa RN4220 lethal
46	COc1ccccc1-n1cc(-c2ccc([N+](=O)[O-])cc2)[nH]c1=S	0	9	4	-6	-26	4032	2.5
47	Nc1nc(-c2ccc3c(c2)CCO3)cs1	9	-3	-7	-3	-56	4036	1.7
48	Cc1nc2c(C)cccc2cc1C(=O)NN=Cc1ccc(C(=O)O)cc1	·	·	11	·	·	·	9.7
49	CCn1cc(C(=O)N2CC(C)CC(C)C2)c(=O)c2cc(S(=O)(=O)N(C)C)ccc21 (configuration not stated)	·	·	-13	-2	-19	4547	-0.1
50	CCOC(=O)c1sc(NC(=O)CSc2nc(C)cc(C(F)(F)F)n2)c(C#N)c1C	-3	8	-8	1	-29	20685*	-0.1
51	COc1ccc(C=NNC(=O)CCc2c(C)n[nH]c2C)cc1OC	14	7	6	·	·	·	8.5
52	COP1(=O)C=C[C@H](N(Cc2ccccc2)S(=O)(=O)c2ccccc2[N+](=O)[O-])[C@@H](C)O1 (some centres not stated)	·	·	·	-3	-6	3888	·
53	CCOC(=O)C1OC2(CCCC2)OC1C(=O)OCC (configuration not stated)	7	6	13	·	0	4153	8.0
54	CC1(C)Cc2c(sc3ncn(N)c(=N)c23)CO1	·	·	·	0	-15	2544	·
55	Cn1c(N)c(C(=O)CSc2nnc(C3CC3)n2-c2ccccc2)c(=O)[nH]c1=O	-5	8	2	·	-7	3849	2.6
56	COc1ccc(OCc2cc(C(=O)NCC(C)(C)N3CCOCC3)no2)c(Cl)c1	-4	0	8	1	-12	4919	0.7
57	CCOc1ccccc1NC(=O)c1cccc(NC(=O)C(C)C)c1	-2	5	18	5	-14	1963	1.3
58	COCCN(C(=O)c1ccccc1F)c1c(N)n(Cc2ccccc2)c(=O)[nH]c1=O	-10	-8	5	2	-34	4568	1.8
59	N#Cc1ccc(C23CC4(C2)C(CN(CC2CCCCC2)C4c2ccccc2)C3c2ccc(Cl)nc2)cc1 (configuration not stated)	-11	8	-15	·	·	·	1.6
60	Nc1cc(C(F)(F)F)ccc1NCCc1ccccn1	8	-10	4	6	-15	4270	-0.3
61	Cc1ccc(NC(=O)COC(=O)Cc2cccs2)cc1S(=O)(=O)N1CCOCC1	-2	-2	3	-4	7	5872	2.7
62	O=C(CSc1n[nH]c(=O)n1Cc1ccccc1)Nc1ccc(F)c(F)c1F	8	5	4	-2	-24	3052	13
63	CCCOC(=O)c1ccc(Oc2cn[nH]c2-c2ccc(O)cc2O)cc1	-5	10	63	0	1	3244	80
64	COc1ccc(C(=O)OCn2nnc3ccccc3c2=O)cc1[N+](=O)[O-]	-3	3	1	-8	-18	5228	3.0
65	Cc1ccc(S(=O)(=O)NC(CC(=O)O)c2ccc(F)cc2)cc1 (configuration not stated)	·	·	·	3	-15	4146	·
66	C=C(C)C(=O)Nc1cccnc1Oc1ccc(F)cc1	-9	-6	9	-6	-22	5513	2.7
67	O=C(CN1CCN(c2ccc(C(F)(F)F)cn2)CC1)Nc1ccc2c(c1)OCO2	-9	6	-5	-12	-36	5437	1.8
